Screens deposited in PubChem BioAssay by Broad Institute.
STK33 kinase inh = inhibitors of human STK33 kinase. AID 2661. inhibition, % at 10 µM. hit rate 0.073% among 320,000. purified STK33, MBP phosphorylation, ADP-Glo luminescence;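 active = inhibition at or above 25%, using the most active replicate where run in duplicate; inactive = inhibition below 25%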
Target sequence (Q9BYT3 whole entry, looked up): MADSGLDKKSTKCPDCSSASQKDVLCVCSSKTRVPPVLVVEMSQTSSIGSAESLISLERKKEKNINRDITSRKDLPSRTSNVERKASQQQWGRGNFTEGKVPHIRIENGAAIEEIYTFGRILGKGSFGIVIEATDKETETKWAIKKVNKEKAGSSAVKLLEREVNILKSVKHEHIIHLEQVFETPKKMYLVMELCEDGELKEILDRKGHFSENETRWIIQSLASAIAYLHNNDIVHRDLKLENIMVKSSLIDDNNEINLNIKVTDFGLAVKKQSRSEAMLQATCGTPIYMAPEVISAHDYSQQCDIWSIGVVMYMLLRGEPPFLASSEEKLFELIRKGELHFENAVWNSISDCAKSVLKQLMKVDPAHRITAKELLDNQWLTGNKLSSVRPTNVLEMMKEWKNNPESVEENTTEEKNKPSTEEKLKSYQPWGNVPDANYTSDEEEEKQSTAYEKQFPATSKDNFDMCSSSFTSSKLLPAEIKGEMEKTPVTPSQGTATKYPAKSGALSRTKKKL
* hit, by the source's call. These rows are one share of the data, and most or all hits are left out here.

STK33 kinase inh | compound
1.0 | COc1ccccc1N1CCN(C(CNS(=O)(=O)c2ccccc2)c2ccccc2)CC1 (stereo unspecified)
-0.9 | Cc1cc(C(=O)COC(=O)c2cccn2C)c(C)n1Cc1ccco1
0.1 | Cc1cccc(C)c1OCCNC(=O)OCc1ccccc1
-0.3 | O=C(COc1ccccc1)NCCSCc1ccccc1Cl
-1.6 | CCCCNC(=O)CN1C(=O)NC2(CCOc3ccccc32)C1=O (stereo unspecified)
-1.2 | Cc1ccc(NC(=O)C(C)OC(=O)CCNS(=O)(=O)c2ccc(C)cc2)cc1 (stereo unspecified)
-0.1 | Cc1ccc(NC(=O)c2ccccc2NC(=O)c2cccs2)cc1
-1.2 | CCOc1ccccc1NC(=O)CCCc1ccc(OC)c(C)c1
0.6 | O=C(Nc1cccc(F)c1)c1ccc(Cn2cc([N+](=O)[O-])cn2)o1
0.4 | COc1cc(OC)c(OC)cc1CN1CCCC(C(=O)c2sccc2C)C1 (stereo unspecified)

Remaining list, next part
STK33 kinase inh | compound
-1.0 | Cc1cccc(C2Nc3ccccc3C(=O)N2NC(=O)c2ccc([N+](=O)[O-])cc2)n1 (stereo unspecified)
-0.4 | COc1ccccc1Oc1ccc(S(=O)(=O)N2CCN(C)CC2)cc1
-1.8 | Cc1ccc(C(=O)N[C@H](C(=O)OCc2cc(=O)n3c(n2)sc2ccccc23)C(C)C)cc1
-2.0 | c1ccc2c(CN3CCSCC3)cccc2c1
-1.8 | O=C(CN(Cc1ccccc1)S(=O)(=O)c1ccccc1)N/N=C/c1ccccc1C(=O)O
0.9 | COc1ccc(C(=O)NC(C)Cn2nc(C)cc2C)cc1OC1CCN(C(C)=O)CC1 (stereo unspecified)
-1.4 | CC(c1cccnc1)N(CCN(C)C)C(=O)Nc1ccc(Cl)cc1 (stereo unspecified)
-1.6 | CCOC(=O)c1ccc(CNC(=O)CSc2nnnn2-c2ccc(Cl)cc2)o1
-1.2 | Cc1nc2sc(C(c3ccco3)N3CC(C)OC(C)C3)c(O)n2n1 (stereo unspecified)
0.2 | CCC(=O)OC1(C)C(=O)C=C2C=C(c3ccsc3)OC=C2C1=O (stereo unspecified)

In the list so far, eight have nitrogen in an aromatic ring.
STK33 kinase inh | compound
-0.9 | Cc1cc(C(=O)COC(=O)c2cccn2C)c(C)n1Cc1ccco1
0.6 | O=C(Nc1cccc(F)c1)c1ccc(Cn2cc([N+](=O)[O-])cn2)o1
-1.0 | Cc1cccc(C2Nc3ccccc3C(=O)N2NC(=O)c2ccc([N+](=O)[O-])cc2)n1 (stereo unspecified)
-1.8 | Cc1ccc(C(=O)N[C@H](C(=O)OCc2cc(=O)n3c(n2)sc2ccccc23)C(C)C)cc1
0.9 | COc1ccc(C(=O)NC(C)Cn2nc(C)cc2C)cc1OC1CCN(C(C)=O)CC1 (stereo unspecified)
-1.4 | CC(c1cccnc1)N(CCN(C)C)C(=O)Nc1ccc(Cl)cc1 (stereo unspecified)
-1.6 | CCOC(=O)c1ccc(CNC(=O)CSc2nnnn2-c2ccc(Cl)cc2)o1
-1.2 | Cc1nc2sc(C(c3ccco3)N3CC(C)OC(C)C3)c(O)n2n1 (stereo unspecified)

(listing goes on)
STK33 kinase inh | compound
0.1 | O=C(COC(=O)c1cnccn1)c1ccc(Cl)cc1
-1.1 | CCOC(=O)N1CCC(N2CC34C=CC(O3)C(C(=O)O)C4C2=O)CC1 (stereo unspecified)
0.3 | O=C(NCc1ccccc1Cl)C1(S(=O)(=O)c2ccc(Cl)cc2)CC1
-0.4 | O=C(N1CCOCC1)N1CCN(C(=O)N(c2ccccc2)c2ccccc2)CC1
-1.1 | NC(N)=N/N=C/c1ccc(Cl)cc1Cl
-1.4 | CCc1ccccc1N(C(C)=O)c1nc(CN=C=S)cs1
0.9 | Cc1sc2ncnc(N3CCC(C(=O)NNC(=O)COc4cccc(C(F)(F)F)c4)CC3)c2c1C
-1.1 | O=C(NCCCc1ccccc1)c1cnc2n(c1=O)CCS2
-0.1 | N#Cc1c(N2CCOCC2)nsc1-c1ccccc1
-2.6 | COc1ccc(-n2c(C)cc(-c3csc(NC(=O)c4ccc(S(=O)(=O)N(C)C)cc4)n3)c2C)cc1

Remaining list, next part.
STK33 kinase inh | compound
-1.4 | CCOc1cc(/C=C2\C(=N)N3N=C(C)SC3=NC2=O)ccc1OCCOc1ccccc1
-0.3 | Cc1ccc(S(=O)(=O)N(C)CC(=O)O/N=C(\N)c2ccc([N+](=O)[O-])cc2)cc1
-0.8 | COC1CCN(C(=O)c2ccc3oc(C(C)C)nc3c2)CC1
-1.5 | CCc1cccc(NC(=S)Nc2cccc3ccccc23)c1
-0.5 | N/C(Cn1cncn1)=N\NC(=O)C(=O)Nc1cccc(C(F)(F)F)c1
-1.0 | O=C(CCSCCc1ccccn1)Nc1cc(F)ccc1F
-0.4 | Cc1ccc(NC(=O)c2cc(=O)[nH]c3ccccc23)cc1
-3.8 | O=S(=O)(NCc1ccccn1)c1cc(Cl)ccc1Cl
-0.3 | Cc1csc(N(C(=O)c2ccccc2F)c2ccccc2)n1
0.1 | Cn1c(SCCc2ccc([N+](=O)[O-])cc2)nccc1=O

Later entries.
STK33 kinase inh | compound
-1.5 | CC(=O)c1c(C)[nH]c(C(=O)OCCCCN2C(=O)c3ccccc3C2=O)c1C
-1.4 | COc1ccc(S(=O)(=O)N(C)c2ccc(C(=O)NC3CC3)cc2)cc1
-0.2 | CCCCNC(=O)c1onc(CSc2ccccc2CC)c1C(=O)O
0.2 | Cc1ccc(NC(=O)NC(=O)N(C(C)C)S(=O)(=O)c2ccc(C)cc2)cc1
-1.0 | Cc1cc(C)nc(N2CCC(C(=O)O)CC2)n1
4.5 | Cc1ccc(S(=O)(=O)/N=C2/C=C(C3C(=O)CC(C)(C)CC3=O)C(=O)c3ccccc32)cc1
-0.4 | CCc1c(C2(O)CCCCC2)[nH]c2c(C(=O)OC)cc(Cl)cc12
0.5 | CCSc1nnc(NC(=O)CSc2nnc(CNC(=O)c3ccc(OC)c(OC)c3)o2)s1
-0.7 | N#CCC(=O)NNC(=S)NC(=O)C(c1ccccc1)c1ccccc1
-0.6 | CN(CC(=O)NCCc1ccc(Cl)cc1)S(=O)(=O)c1cccs1

Carrying on.
STK33 kinase inh | compound
2.6 | S=c1[nH]nc(-c2ccco2)n1/N=C/c1ccc(Cl)cc1
-2.1 | COc1ccc(S(=O)(=O)Nc2c(F)cccc2F)cc1
-0.5 | Cn1c(=N)n(CC(O)c2ccccc2)c2ccccc21 (stereo unspecified)
0.3 | O=C(Nc1ccc(Cl)cc1)c1ccc2ncsc2c1
-1.9 | O=C(Cn1nnc(-c2ccccc2NC(=O)c2ccccc2F)n1)NC1CCCC1
0.2 | COC(=O)c1ccc2[nH]c3c(c2c1)CC(C)CC3 (stereo unspecified)
-0.6 | CC(CCc1ccccc1)NC(=O)CSc1nccc(=O)[nH]1 (stereo unspecified)
-1.3 | O=C(CN(C(=O)CCC(=O)Nc1nccs1)C1CCCC1)NCc1ccc2c(c1)OCO2
-0.1 | c1ccc(NCn2cncn2)nc1
1.0 | COc1ccc(CC2(CO)CCN(Cc3cnn(-c4ccccc4OC)c3)CC2)cc1

Continuation:
STK33 kinase inh | compound
-0.9 | CCCC(=O)NC(NC(=S)Nc1c(C)n(C)n(-c2ccccc2)c1=O)C(Cl)(Cl)Cl (stereo unspecified)
-0.4 | COc1cccc(OC)c1C(=O)NC(=S)Nc1ccc2c(c1)Cc1ccccc1-2
-0.2 | O=C(NCCCN1CCOCC1)c1onc(CSc2ccccn2)c1C(=O)NCCCN1CCOCC1
-0.7 | Cc1noc(C)c1COc1ccccc1C(=O)N1CCN(S(=O)(=O)c2ccccc2F)CC1
-1.3 | Cc1ccc(S(=O)(=O)N2CCN(C3CCC(c4ccccc4)CC3)CC2)cc1 (stereo unspecified)
-0.2 | O=C(CC1Oc2ccc(Cl)cc2NC1=O)NC1CCCCCC1 (stereo unspecified)
-0.4 | O=C(O)Cn1c(=O)c2c3c(sc2n(Cc2ccccc2)c1=O)CCCC3
-0.2 | COc1ccc(C(=O)NN=C(Cc2ccccc2)Cc2ccccc2)cc1OC
-1.7 | CCOC(=O)CC(=O)CSc1n[nH]c(=O)[nH]c1=O
1.7 | COC(=O)C1=C(C)OC(N)=C(C#N)C1C1CCCCC1 (stereo unspecified)

Additional structures.
STK33 kinase inh | compound
1.9 | CC(=O)c1ccc(NC(=S)N2CCC(Cc3ccccc3)CC2)cc1
1.9 | COc1ccc(Cc2nc3ccc(C(=O)NC(C)c4cn(C)nc4C)cc3o2)cc1 (stereo unspecified)
-1.0 | COc1ccc(-n2c(CN3CCC(C)CC3)nc3ccc([N+](=O)[O-])cc3c2=O)c(OC)c1
6.2 | COc1ccccc1NC(=O)c1ccc(NC(=O)c2ccco2)cc1
-1.0 | CCOc1cccc(NC(=O)Cc2cccs2)c1
-3.6 | Fc1cc(NC(=S)NCc2ccc(CNC(=S)Nc3ccc(Cl)c(F)c3)cc2)ccc1Cl
-0.2 | COc1ccc(Nc2nc(N3CCCC3)nc(N3CCOCC3)n2)cc1
1.7 | COc1ccc(C)cc1NC(=O)CCNS(=O)(=O)c1ccc2c(c1)CCC(=O)N2
-0.4 | Clc1ccc(C#Cc2cccnc2)cc1
0.5 | C#Cc1cccc(NC(=O)Cc2cccs2)c1

(cont.)
STK33 kinase inh | compound
-0.9 | O=C(NC1CCCCC1)c1cccnc1C(=O)O
-1.4 | Cc1cc(OCCN2CCCC2)ccc1C(C)C
-2.2 | COc1cccc(NC(=O)C(OC(=O)c2ccccc2NS(=O)(=O)c2cccs2)c2ccccc2)c1 (stereo unspecified)
-0.2 | O=C(CC1SC(=Nc2ccccc2)N(CCc2c[nH]c3ccccc23)C1=O)Nc1ccccc1F (stereo unspecified)
-1.6 | NC(=O)[C@H]1CC2(CC(c3cccc(NC(=O)COc4ccc(Cl)cc4)c3)=NO2)CN1C(=O)CC(c1ccccc1)c1ccccc1 (stereo partly specified)
-0.6 | Cc1nc2cc(C(=O)O)ccc2n1-c1ccccc1
-3.5 | Cc1cc(C)c(S(=O)(=O)N2CCN(c3ccccc3)CC2)c(C)c1
-1.4 | COC(CN(C)C(=O)C1CCC(CNS(=O)(=O)c2ccccc2)CC1)OC (stereo unspecified)
-0.9 | COc1cc(C(=O)Nc2cccc(-n3cnnn3)c2)cc(OC)c1OC
1.0 | Cc1cc(C)c2c(=O)[nH]c(SCc3ccc([N+](=O)[O-])cc3)nc2n1

Further structures follow:
STK33 kinase inh | compound
-3.2 | COc1cccc(-c2nn(C)c3sc(C(=O)N4CCN(c5ccccn5)CC4)cc23)c1
-2.6 | CCn1cc(C(=O)NCCc2ccccc2C)c(=O)c2ccc(C)nc21
-0.4 | Cc1ccc2nc(SCC(=O)Nc3ccc4sc(C)nc4c3)c(C#N)cc2c1
-1.4 | Cc1cccc(C)c1CC(=O)N1CCOCC1
-2.7 | COc1ccc(-c2nnc(SCC(=O)NNC(=O)c3ccc(C)cc3)o2)cc1
0.1 | CCOC(=O)C1=NN(C(=O)c2ccccc2)C(O)(c2ccc(C)cc2)C1 (stereo unspecified)
-1.2 | Clc1ncc(CN2CCN(c3ccccc3)CC2)s1
-0.4 | COc1ccc(NC(=O)CSc2nnc(C3CCCCC3)n2N)c(OC)c1
-1.2 | COC(=O)c1cc(OC)c(OC)cc1NC(=O)CCCCCN1C(=O)CCC1=O
-0.6 | O=C(CCC(=O)N(CC(=O)NC1CCCCC1)c1ccccc1F)Nc1nccs1

Next structures follow:
STK33 kinase inh | compound
1.1 | CC1CCCc2sc3nc(NCc4ccco4)n4ncnc4c3c21 (stereo unspecified)
0.0 | CN(C(=O)CSc1nncc2ccccc12)C1CCCCC1
-2.0 | O=C(COC(=O)c1cc(Cl)ccc1O)NCCC1=CCCCC1
1.5 | CCC(=O)N1CCN(c2ccc(OC)cc2[N+](=O)[O-])CC1
0.0 | Cc1ccccc1NS(=O)(=O)c1nnc(NC(=O)c2ccccc2F)s1
-0.2 | COc1cccc(C(=O)Oc2ccc(N3C(=O)CCC3=O)c(C)c2)c1
0.4 | CSc1nsc(SCC(=O)Nc2cccc(C(=O)O)c2)n1
-0.8 | CN(CC(=O)Nc1c(Cl)cccc1Cl)C(=O)c1ccccc1-c1nc2ccccc2s1
0.5 | C/C(=N\Nc1ccccn1)c1ccc(C(C)C)cc1
-0.4 | CC(NC(=O)c1ccc(F)cc1Cl)C1CC2CCC1C2 (stereo unspecified)

The last four entries of the part above come first, to join the parts:
STK33 kinase inh | compound
0.4 | CSc1nsc(SCC(=O)Nc2cccc(C(=O)O)c2)n1
-0.8 | CN(CC(=O)Nc1c(Cl)cccc1Cl)C(=O)c1ccccc1-c1nc2ccccc2s1
0.5 | C/C(=N\Nc1ccccn1)c1ccc(C(C)C)cc1
-0.4 | CC(NC(=O)c1ccc(F)cc1Cl)C1CC2CCC1C2 (stereo unspecified)
-0.7 | Cc1ccc(F)cc1NC(=O)CSc1nnc(CNC(=O)c2ccco2)n1C
-1.5 | COc1cc(CCC(=O)OCC(=O)N(CCC#N)c2ccccc2)cc(OC)c1OC
0.8 | O=C(NCCCN1CCCC1)c1ccc(Cn2c(=S)[nH]c3ccc(Br)cc3c2=O)cc1
-0.3 | COc1ccc(C(=O)Nc2ccccc2N2CCCCC2)cc1[N+](=O)[O-]
-4.3 | O=C1CCC(=O)N1CCSC(=S)N1CCSCC1
-0.7 | COC(CNC(=O)c1ccc(N2CCCC2=O)cc1)OC
-1.1 | O=C(O)C1CCCCC1C(=O)NCc1ccc(F)cc1 (stereo unspecified)
0.3 | O=C(/C=C/C(=O)N1CCc2ccccc2C1)N1CCc2ccccc2C1
-1.9 | CCn1c2ccccc2c2cc(NC(=O)c3cc(OC)c(OC)c(OC)c3)ccc21
-1.1 | Cc1ccc2cc(C)c3nnc(SCC(=O)N4CCN(C(=O)c5ccco5)CC4)n3c2c1

Next records follow.
STK33 kinase inh | compound
-2.3 | C=CCn1c(SCC(=O)Nc2ccc(N3CCOCC3)cc2)nnc1-c1ccncc1
0.2 | Cc1csc(=O)n1CC(=O)OCC(=O)c1ccc(Br)cc1
-0.2 | CC(=O)Nc1nc2c(ccc3ccccc32)s1
0.0 | Cc1cccc(C(=O)NC2CCCCCCC2)c1
1.7 | CCCc1cc(C(=O)N2CCC(N3CCC(C(=O)NC(C)C)CC3)CC2)n(C)n1
-1.1 | CN(Cc1cc(=O)[nH]c2ccccc12)C(=O)c1ccccc1
-1.2 | C[C@H](NC(=O)OC(C)(C)C)C(=O)NCC1CCC(C(=O)O)CC1 (stereo partly specified)
1.3 | S=C(Nc1cc(Cl)cc(Cl)c1)NC1CCN(Cc2ccccc2)CC1
